MenB inh = M. tuberculosis MenB inhibitors, primary screen, biochemical, absorbance; 1,4-dihydroxy-2-naphthoyl-CoA synthase (Mycobacterium tuberculosis (strain ATCC 25618 / …; MenB enzyme assay, absorbance read-out; some hits fall short of the stated cut; inhibition, %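 (about 12 µg/mL by stock and volumes)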; hit rate 0.43% among 100,000; AID 540299, 2011;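 active = mean of two replicates above 30%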;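 also: 0% = no compound and 100% = wells with inactive enzyme; the first replicate is given; strong numbers were not always called active; inactives centre near -10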
Target sequence (P9WNP5 whole entry, looked up): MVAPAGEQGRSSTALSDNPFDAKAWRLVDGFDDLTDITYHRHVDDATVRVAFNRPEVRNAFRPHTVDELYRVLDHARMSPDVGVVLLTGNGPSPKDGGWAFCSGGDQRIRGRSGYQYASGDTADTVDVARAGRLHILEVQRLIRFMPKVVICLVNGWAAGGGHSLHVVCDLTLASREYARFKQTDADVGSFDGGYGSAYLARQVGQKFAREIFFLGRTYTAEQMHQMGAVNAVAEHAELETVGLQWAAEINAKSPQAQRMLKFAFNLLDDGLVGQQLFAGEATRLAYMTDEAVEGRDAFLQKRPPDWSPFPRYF
Mtb MbtI inh = MbtI salicylate synthase inhibitors, primary screen, biochemical, fluorescence intensity | purified MbtI enzyme, fluorescence intensity read-out | inhibition, %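 (about 17 µg/mL by stock and volumes)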 | hit rate 0.89% among 100,000 | AID 493033, 2011;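 active = above 50% in both replicates, above 80% if mildly self-fluorescent; inactive = the rest, strongly fluorescent compounds included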;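 also: 0% = mean of negative and 100% = mean of positive controls; one replicate is shown; some compounds called inactive have numbers as strong as hits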
Polio RdRp inh = poliovirus RdRp elongation inhibitors, primary screen, biochemical, fluorescence polarization, total intensity. Genome polyprotein (Poliovirus type 1 (strain Mahoney)), P03300. poliovirus polymerase elongation; stronger effect = lower value. % elongation, % (compound at 16.7 µg/mL). hit rate 0.66% among 150,000; in the data active = % elongation below about 90%; also: some results filed as inactive read as strong as hits
Target sequence (P03300 1749-2209 limits assumed): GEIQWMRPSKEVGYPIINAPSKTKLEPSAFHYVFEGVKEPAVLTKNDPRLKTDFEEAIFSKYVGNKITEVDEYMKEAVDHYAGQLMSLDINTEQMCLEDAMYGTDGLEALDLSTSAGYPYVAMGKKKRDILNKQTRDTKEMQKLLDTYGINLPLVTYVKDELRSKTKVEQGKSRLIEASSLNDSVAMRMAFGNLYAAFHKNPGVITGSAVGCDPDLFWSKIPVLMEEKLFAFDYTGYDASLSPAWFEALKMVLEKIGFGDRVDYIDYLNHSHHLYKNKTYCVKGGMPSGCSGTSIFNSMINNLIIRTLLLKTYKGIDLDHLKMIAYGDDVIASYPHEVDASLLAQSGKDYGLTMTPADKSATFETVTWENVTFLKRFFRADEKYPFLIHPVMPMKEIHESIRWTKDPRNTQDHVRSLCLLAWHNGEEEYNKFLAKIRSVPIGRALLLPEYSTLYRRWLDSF
Polio RdRp inh intensity = second read-out of Polio RdRp inh, no call of its own (marks repeat the call); % elongation; measured here: total intensity read-out; formula for this scale not given here;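 total fluorescence in place of polarization; lower means less elongation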
The depositor's hits bear a star; / = no result given; & = joins results of further samples.

SMILES	MenB inh	Mtb MbtI inh	Polio RdRp inh	Polio RdRp inh intensity
c1ccc2c(c1)OCC(CNc1ncnc3sccc13)O2 (stereo not drawn)	-3	-12	112	119
COc1cccc(OC)c1C(=O)Nc1c(C(=O)N2CCN(c3ncccn3)CC2)oc2ccccc12	-14	-4	100	100
CC1(C)CC(=O)C=C(N2CCN(c3ccccn3)CC2)C1	-14	23	107	108
O=C1CCCC2=C1C(c1ccccc1Cl)N=C(Nc1nc3ccccc3s1)N2 (stereo not drawn)	-18	-102	105	105
Cn1ncc2c(N3CCCCC3)nc(N3CCCC3)nc21	14	-6	101	103
Cn1c(=NC(=O)C2CCCCC2)sc2cc(F)ccc21	-23	0	99	101
CCOC(=O)c1sc2nc(CN3CCOCC3)nc(NCC3COc4ccccc4O3)c2c1C (stereo not drawn)	-39	-8	109	98
COc1ccc(C2(O)CCN(CCCCOc3ccccc3)CC2)cc1	-20	-10	102	102
Nc1cccc2c1C(=O)N(C(=O)c1ccc3c(c1)S(=O)(=O)N=C1CCCCCN13)C2=O	-32	-1	58*	89*
COC(=O)c1ccc2c(=O)n(CC3CCCO3)c(SCc3coc(-c4cccs4)n3)nc2c1 (stereo not drawn)	-20	-2	103	107
O=S(=O)(NCCOC12CC3CC(CC(C3)C1)C2)c1cc(Cl)ccc1Cl	-3	/	105	112
Cn1c(=O)c2c(ncn2CCC(=O)NCCc2ccc(F)cc2)n(C)c1=O	-3	-2	102	104
Cc1cc2c(cc1S(=O)(=O)NC1CCCCC1)OCCN2C	-11	0	103	103
Cc1nn(-c2ccccc2)c2c1nc(CCC(=O)NCC1CCCO1)c(=O)n2C (stereo not drawn)	6	-23	102	103
CC(C)(C)N(Cc1ccccc1)C(=O)c1ccco1	-24	-33	101	103
OC(COc1ccc2oc3ccccc3c2c1)CN1CCN(Cc2ccccc2)CC1 (stereo not drawn)	-5	6	105	113
COc1ccc(-c2csc(-c3cccnc3)n2)cc1	/	-21&-15	102	106
CSc1cc(-c2nccs2)[nH]n1	-16	7	101	98
Nc1nncn1C(=O)CCCOc1ccccc1	-3	1	101	98
S=c1[nH]nc(-c2ccncc2)n1-c1ccc2c(c1)OCO2	-4	62*	99	100
Cc1nc(/N=C/N(C)C)c(Br)cc1Br	-19	/	102	101
NC(=O)COc1coc(CN2CCc3ccccc3C2)cc1=O	17	22	102	103
O=C(O)CCn1ccnc1	-38	-5	100	101
CCC(=O)N1CCc2cc(S(=O)(=O)NC(CC(C)C)C(=O)Nc3cc(C)ccc3C)ccc21 (stereo not drawn)	6	-4	102	105
COC(=O)c1ccc(C(=S)NCC(OC)OC)cc1	-61	87*	79*	83*
CC(C)CNC(=O)C1CCN(C(=O)c2ccc(F)cc2)CC1	-16	-27	100	104
O=C(CN1CCOc2ccccc21)NCc1ccco1	0	1	103	100
Cc1ccc(/C=C2/N=C(c3ccccc3)NNC2=O)cc1	-5	14	102	97
CCN(Cc1ccccc1)C(=O)Nc1c[nH]c2ccccc12	5	-4	101	100
Cc1cccc(NC(=O)c2ccc(C)c(S(=O)(=O)N3CCCC3)c2)c1	-12	-8	100	98
CN(CC(=O)NC1(C#N)CCCC1)c1ccccc1	10	-2	103	107
O=C(O)CC1NC(=O)c2ccccc21 (stereo not drawn)	-7	-11	101	100
CN(CC#N)c1ccc(C2OCC3(CCC4(COC(c5ccc(N(C)CC#N)cc5)OC4)C3=O)CO2)cc1 (stereo not drawn)	-3	1	98	106
Cn1ccnc1CC(O)(c1ccccc1)c1ccccc1	/	-5	103	95
Cc1nccn1S(=O)(=O)c1c(C(C)C)cc(C(C)C)cc1C(C)C	3	-7	101	103
CC1Sc2ccc(C(=O)Nc3ccc(S(=O)(=O)NCc4ccco4)cc3)cc2NC1=O (stereo not drawn)	-24	-2	/	/
O=C(NC1=NCCS1)C1CCN(c2ncc(C(F)(F)F)cc2Cl)CC1	-1	-7	108	108
COCCn1c(=O)[nH]c2cc(C(=O)NCC3CCCO3)ccc2c1=O (stereo not drawn)	-33	118	100	100
CS/C(N)=N/S(=O)(=O)c1cccs1	-13	-13	104	99
CCOc1ccc(-n2nnc(C(=O)NCCCn3ccnc3)c2C)cc1	14	3	104	104
CC1CN(C(=S)NCc2ccco2)CC(C)O1 (stereo not drawn)	1	23	101	103
O=C(CSc1nnnn1C1CCCC1)Nc1nc2ccc(F)cc2s1	-26	-1	108	108
CS(=O)(=O)c1ccc(Cl)c(C(=O)OCC(=O)c2ccc3c(c2)OCO3)c1	9	8	105	100
O=C(OCc1ccco1)c1cnc(Nc2ccc(OC(F)(F)F)cc2)nc1C(F)(F)F	-16	-2	97	98
COc1ccc(C(=O)N(C)C2CCCCC2)cc1	-38	-10	100	105
COC(=O)CSc1nc(-c2ccc(F)cc2)[nH]c1-c1ccc(C)cc1	-9	25	101	103
O=C(/C=C/c1cccs1)Nc1nnc(-c2cccs2)o1	-18	82	100	100
NC(=O)C1C2CCC(C2)C1C(=O)c1ccccc1 (stereo not drawn)	-8	/	100	104

Filtered by structure: the entries above containing a thiophene ring, fused or not.
SMILES	MenB inh	Mtb MbtI inh	Polio RdRp inh	Polio RdRp inh intensity
c1ccc2c(c1)OCC(CNc1ncnc3sccc13)O2 (stereo not drawn)	-3	-12	112	119
CCOC(=O)c1sc2nc(CN3CCOCC3)nc(NCC3COc4ccccc4O3)c2c1C (stereo not drawn)	-39	-8	109	98
COC(=O)c1ccc2c(=O)n(CC3CCCO3)c(SCc3coc(-c4cccs4)n3)nc2c1 (stereo not drawn)	-20	-2	103	107
CS/C(N)=N/S(=O)(=O)c1cccs1	-13	-13	104	99
O=C(/C=C/c1cccs1)Nc1nnc(-c2cccs2)o1	-18	82	100	100

Going on with the list.
SMILES	MenB inh	Mtb MbtI inh	Polio RdRp inh	Polio RdRp inh intensity
Cn1c(Cn2c(=O)sc3ccccc32)nnc1SCc1ccc(Cl)cc1	-37	-3	101	104
CCOC(=O)c1c(C)n(Cc2ccccc2)c2ccc(O)cc12	/	1	100	103
CCCCn1c(=O)c(C(=O)OCC)c(O)c2ccccc21	-25	2	101	103
COC(=O)c1cn(C(=O)OC)c2ccccc12	-8	-16	100	103
CC(C)(C)C(=O)Nc1ccccc1C(=O)Nc1nccs1	-51	8	102	102
O=C(NCCNCc1ccco1)c1ccccc1	-24	2	102	103
Cc1cc(C)nc(SCc2nnc(Nc3ccc(S(N)(=O)=O)cc3)s2)n1	-23	-4	102	101
COCCN=C1NN=C(c2cc(C)n(CCc3ccc(F)cc3)c2C)CS1	-43	1	104	103
COC(=O)C(NC(=O)CC12CC3CC(CC(C3)C1)C2)C(C)C (stereo not drawn)	-18	-18	100	105
CCN(CC)C(=O)Cn1cnc2sc(C(=O)N3CCN(c4ccc(F)cc4)CC3)c(C)c2c1=O	-21	-2	107	108
CC(OC(=O)c1ccc(NC(=O)CC#N)cc1)C(=O)Nc1ccccc1 (stereo not drawn)	-17	3	104	103
COc1cc(-c2nn3cc(-c4ccccc4)nc3s2)cc(OC)c1OC	-11	109	100	104
O=C(CN1CCOCC1)Nc1ccccc1	-44	-10	100	103
Cc1ccc(S(=O)(=O)Cc2csc(N)n2)cc1	-25	-10	102	102
CC(C)n1c(O)c(N=NC(=O)Cc2csc(N3CCOCC3)n2)c2ccccc21	-14	5	98	103
COC(=O)c1ccc2c(=O)n(CCC3=CCCCC3)c(SCC(=O)C(C)(C)C)nc2c1	-6	3	105	105
O=C(CCSc1ccc(F)cc1)NNc1ccc(C(=O)O)cc1	-83	25	103	106
CCCCN(CC)c1cn[nH]c(=O)c1Cl	-7	7	100	104
Cc1cccn2c(=O)c(/C=C(\C#N)C(=O)N3CCOCC3)c(Oc3ccccc3)nc12	-3	-3	101	103
COC(=O)c1cc(-c2ccc(OC)c(OC)c2)nc2c1cnn2C(C)C	2	51	99	101
COc1ccc(NC(=O)COC(=O)c2nn(C)c(=O)c3ccccc23)cc1	-35	0	105	98
O=C(Cn1cnc2ccccc21)N/N=C/c1ccccc1	-27	3	107	102
O=C(COC(=O)Cc1ccsc1)NCc1ccccc1	/	-1	99	105
CSc1cccc(NC(=O)CCSc2ccccc2)c1	-21	3	101	101

Given with values under each structure: part of the list above
Sequence of screens – MenB inh | Mtb MbtI inh | Polio RdRp inh | Polio RdRp inh intensity
> COC(=O)c1cc(-c2ccc(OC)c(OC)c2)nc2c1cnn2C(C)C
  2 | 51 | 99 | 101
> COc1ccc(NC(=O)COC(=O)c2nn(C)c(=O)c3ccccc23)cc1
  -35 | 0 | 105 | 98
> O=C(Cn1cnc2ccccc21)N/N=C/c1ccccc1
  -27 | 3 | 107 | 102
> O=C(COC(=O)Cc1ccsc1)NCc1ccccc1
  / | -1 | 99 | 105
> CSc1cccc(NC(=O)CCSc2ccccc2)c1
  -21 | 3 | 101 | 101

(next part)
SMILES	MenB inh	Mtb MbtI inh	Polio RdRp inh	Polio RdRp inh intensity
CCC(=O)[C@@]1(C)[C@H](C)C[C@H]2[C@@H]3CCC4=CC(=O)C=C[C@]4(C)[C@H]3[C@@H](O)C[C@@]21C	-101	-10	99	101
COc1ccc2c(C(F)(F)F)cc(SCC(=O)N3CCCC3)nc2c1	10	-17	/	/
Cc1ccc(/C=C/C(=O)OC(C)C(=O)Nc2ncc(Cl)cc2Cl)o1 (stereo not drawn)	0	30	/	/
O=c1cc(-c2ccncc2)oc2ccccc12	-16	12	101	100
CCOc1cc2c(cc1CNC(CN1CCOCC1)c1ccc(C)cc1)OC(C)C2 (stereo not drawn)	-1	5	91	100
Brc1ccc(-n2cnc(-c3ccccc3)c2)cc1	/	-3	106	109
N#Cc1ccc(C(=O)OCC(=O)NCc2ccccc2)cc1	/	-16	101	105
CCN(C1=NS(=O)(=O)c2ccccc21)N(CC)S(=O)(=O)c1ccc(C)cc1	16	7	104	99
O=C(/C=C/C(=O)N1CCCc2ccccc21)N1CCN(c2ccc(F)cc2)CC1	-9	-1	104	107
Cc1cc(C)nc(/N=C(/N)N2CCC(C)CC2)n1	-11	-6	103	103
CCN1CCN(C(=O)c2nc(-c3ccc(C)cc3)n3c2CCCCC3)CC1	-5	-3	100	101
CC(C)(C)NC1C=C(c2ccccc2)Sc2nc(-c3ccccc3)cn21 (stereo not drawn)	-17	-13	102	102

Looked up above.
CC(C)(C)NC1C=C(c2ccccc2)Sc2nc(-c3ccccc3)cn21 (stereo not drawn) – MenB inh: -17
O=C(/C=C/C(=O)N1CCCc2ccccc21)N1CCN(c2ccc(F)cc2)CC1 – Polio RdRp inh intensity: 107

Next part.
SMILES	MenB inh	Mtb MbtI inh	Polio RdRp inh	Polio RdRp inh intensity
CCN1CCSc2ccc(C(=O)NCc3ccccn3)cc21	-17	-61	103	107
COc1ccc(OC)c(NC(=O)CSc2nnc(NC(=O)C3CC3)s2)c1	8	10	103	104
O=C(O)CN1CCc2ccccc2C1	-15	2	101	99
CC(C)(C)CC(C)(C)N1CNC(=S)NC1	-30	19	90	121
Cc1ccc(C(=O)OCC(=O)N2CCCC2)cc1	/	-2	103	97
COCC(C)n1c(COc2ccccc2F)nnc1SCC(=O)c1ccc2c(c1)NC(=O)CO2 (stereo not drawn)	-17	0	109	108
CCn1nc(CC(=O)Nc2nnc(CC(=O)N3CCCC3)s2)c2ccccc2c1=O	28	5	100	101
Cc1ccc(CNC(=O)c2cc3c(=O)[nH]c4ccccc4c3n2C)cc1	-10	-8	99	102
CC1CCCC(C)N1C(=O)CSc1ncccn1 (stereo not drawn)	-15	-7	99	103
COC(=O)CN(C)S(=O)(=O)c1c(C)cc(C)cc1C	-20	6	103	102
O=C(c1c[nH]c2c(F)cccc2c1=O)N1CCNCC1	5	13	104	102
CN(C1CCCCC1)S(=O)(=O)c1ccccc1NC=C(C#N)C#N	-23	8	/	/
Cc1nnsc1-c1nc(-c2ccc(Cl)s2)cs1	8	-11	102	109
CC(C)c1cc(NC2CCCC2)n2c(nc3ccccc32)c1C#N	3	-5	101	101
O=C(Cn1c(=O)oc2ccccc21)OCC(=O)N(C1=CCCCC1)C1CC1	-5	-8	104	110
COc1ccccc1C(=O)OCC(=O)NC1CCCC1	/	0	104	107
O=C(Nc1ccccc1)C1CCCCC1	-8	32	101	105
NS(=O)(=O)c1ccc(CNC(=O)c2ccccc2)s1	14	12	103	103
CCOc1ccc2nc(NCCNC(=O)Nc3cccc(Cl)c3)c(C#N)cc2c1	19	-5	102	105
O=S(=O)(Nc1nc2ccccc2[nH]1)c1ccc2ccccc2c1	/	30	100	106
Cc1cc(C)c2c(-n3cccc3)nn(CC(=O)NC3CC3)c2n1	-4	-46	102	103
CC(O)CNCc1cccc2ccccc12 (stereo not drawn)	-5	/	106	112
Cn1c(=O)cc(OCC(=O)NCc2cccs2)c2ccccc21	-2	-9	100	105
C=CCN1C(=O)S/C(=C\c2ccc(OCC(=O)OC)cc2)C1=O	-5	-6	97	101
Cc1cc(C)nc(/N=C(/NC(=O)c2ccccc2)N2CCC(C(N)=O)CC2)n1	7	-2	104	108
CN(C)c1ccc(-c2nc3c4ccccc4c4ccccc4c3n2C)cc1	-40	107	103	97
O=C(/C=C/c1ccco1)OCC1CCCN2CCCCC12 (stereo not drawn)	-66	24	104	101
C(=NC1=NN(c2ccccc2)CC1)N1CCCCC1	-5	14	101	107
O=C(c1ccc(F)cc1)N(C(=O)c1ccc(F)cc1)c1ncccn1	/	-9	104	104
O=S(=O)(Nc1nc2ccccc2nc1Cl)c1ccccc1	-4	-13	102	102
N#Cc1ccc(C2N(c3ccccc3)CCN2c2ccccc2)cc1	-14	/	97	103
O=C(CSc1ncccc1C(=O)NCC1COc2ccccc2O1)Nc1ccc2c(c1)OCO2 (stereo not drawn)	4	-3	106	97

High-throughput results (PubChem)
